Compound activity deposited in PubChem BioAssay by National Center for Advancing Translational Sciences (NCATS).
RE007 growth inh = qHTS Assay for Inhibitors of the HIV-1 protein Vpr. 0.21% of 360,000 active. S. pombe RE007 Vpr strain, BacTiter-Glo ATP luminescence, 24 h; control for the full effect not named in the record. Potency, µM (titrated, usually from 92.2 µM), inactives show at the highest dose activity change, negative = less growth; active = well fitted falling curve with a large enough effect; inconclusive = small, poorly fitted or top-dose-only effect; inactive = no such curve, though single readings can be large or run the other way;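 also: % is scaled to controls: 0 for no effect and ±100 for the full control effect; nearly all actives have a fitted effect of over 50% in size; the assay follows cell death caused by Vpr and the record does not say whether a fall means rescue or toxicity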
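Fission yeast RE007 carrying one integrated HIV-1 vpr copy, seeded at OD 0.01 in PMG+AL medium with 23 nL pinned compound. Grown 24 h at 30 degrees; viability read by BacTiter-Glo luminescence after 5 min.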
SARS PLpro yeast = qHTS of Yeast-based Assay for SARS-CoV PLP. S. cerevisiae expressing SARS-CoV PLpro, growth rescue; control for the full effect not named in the record. AID 485353, 2010. 0.19% of 330,000 active. Potency, µM (top dose mostly 32.9 µM), for the others: top-dose activity, positive = growth rescue; active means well fitted rising curve with a large enough effect; inconclusive means small, poorly fitted or top-dose-only effect; inactive means no such curve, though single readings can be large or run the other way; also: 0% is about no effect; nearly all actives have a fitted effect of over 55% in size; growth read by luminescence after 48 h
2A StopGo = High Throughput Screening for Foot and Mouth Disease Virus Antivirals; human cells with a luciferase reporter of 2A StopGo recoding; control for the full effect not named in the record; Potency, µM (highest dose often 57.9 µM), without a hit: top-dose signal change, negative = less light; 1.2% of 410,000 active; AID 1159524, 2015; active = well fitted falling curve with a large enough effect; inconclusive = small, poorly fitted or top-dose-only effect; inactive = no such curve, though single readings can be large or run the other way; tested in HEK293T cells; also: % is scaled to controls: 0 for no effect and ±100 for the full control effect; nearly all actives have a fitted effect of over 45% in size; luciferase light after 4 h
Starred values were filed as active, the others as inactive; ? = inconclusive; [ ] = dose if it differs, or a comment. Potency is read from the fitted curve at half-maximal effect. Not all compounds are listed. The share of hits here may be higher or lower than overall.

SMILES | RE007 growth inh | SARS PLpro yeast | 2A StopGo
CC1CCCN(C(=O)CNC(=O)c2cccs2)C1 (stereo not drawn) | 3% | -2% | 0%
CC(C)(C)c1ccc(C(=O)NCC(=O)NCc2ccccn2)cc1 | 0% | -12% | -1%
CN1C[C@@H]2[C@@H]3C(=O)N(Cc4ccccc4)C(=O)[C@@H]3[C@](C)(C1=O)N2C(=O)c1ccc(Cl)cc1 | 0% | 0% | -20%
CC[C@@]1(C(=O)OC)N[C@H](CN(C)C(=O)c2ccccc2)[C@@H]2C(=O)N(C)C(=O)[C@@H]21 | 7% | 2% | -3%
CCCCCN(C(=O)COC(=O)c1ccc(C)cc1)c1c(N)n(CCCC)c(=O)[nH]c1=O | 7% | -4% | -15%
COc1ccc(C)cc1NC(=O)COC(=O)C1COc2ccccc2O1 (stereo not drawn) | 7% | -2% | -7%
CNc1nc(N)nc(OC(C(F)(F)F)C(F)(F)F)n1 | -17% | 2% | 1%
C[C@]12c3[nH]c4ccc(Cl)cc4c3CCN1C(=O)[C@@H](CC(=O)NCC13CC4CC(CC(C4)C1)C3)C[C@@H]2C(=O)N1CCOCC1 | 4% | 1% | ?
Cc1c(CNC(=O)C2CC2)c(-n2cccc2)n(Cc2ccccc2)c1C | -6% | 4% | -4%
C[C@@H]1CN([C@H](C)CO)C(=O)Cc2cc(NS(=O)(=O)c3ccc(Cl)cc3)ccc2O[C@H]1CN(C)Cc1ccc(C(F)(F)F)cc1 | 15% | 0% | ?
CC1Cc2ccccc2N1CC(=O)Nc1ccc2c(c1)OCCCO2 (stereo not drawn) | 13% | 6% | 30%
O=C1N[C@@H](c2ccccc2)COC(=O)[C@H](Cc2ccc(F)cc2)CC/C=C/C[C@@H]1CC(=O)N(CCO)Cc1ccccc1 | 6% | 1% | 1%
O=C(CSc1ccsc1[N+](=O)[O-])N1CCCCCC1 | 8% | -5% | 16%
CC1CC(=O)Nc2ccccc2N1C(=O)CSc1ncnc2sccc12 (stereo not drawn) | -1% | -3% | -17%
CCN1CCN(S(=O)(=O)c2ccc(Cl)c(C(=O)NC3CCC(C)CC3)c2)CC1 (stereo not drawn) | 3% | -14% | -22%
Cc1ccc(C(C)C)c(OCC(=O)NNC(=O)Cn2[nH]c(=O)c3ccccc3c2=O)c1 | 0% | 1% | -17%
CC(C)CN(C(=O)CSc1nnc2ccccn12)C1CCS(=O)(=O)C1 (stereo not drawn) | -19% | 1% | -12%
CCOc1ccc(OCCC(=O)Nc2ccc(F)cc2C)cc1 | -1% | -4% | 7%
O=c1oc(CCCO)cc2ccc(C#Cc3cccnc3)cc12 | 20% | -11% | 48%[activator]
O=C(CN1C(=O)NC2(CCCCC2)C1=O)Nc1ccccc1N1CCCCC1 | -1% | 0% | -7%
C/C(=N\NC(=O)c1cccc(S(=O)(=O)N2CCOCC2)c1)c1ccc(O)cc1 | -4% | 3% | -2%
Cc1ccc2nc(N3C(=O)C(O)=C(C(=O)c4ccc(C)o4)C3c3ccc(O)cc3)sc2c1 (stereo not drawn) | -5% | 5% | 2%
CC[C@]12c3[nH]c4cc(CCC(=O)N(C)C)ccc4c3CCN1C(=O)[C@@H](CC(=O)NCCCOC)C[C@@H]2C(=O)N1CCN(C(=O)C2CC2)CC1 | -7% | 0% | -18%
C[C@H](CO)N1C[C@H](C)[C@@H](CN(C)S(=O)(=O)c2cn(C)cn2)Oc2c(NS(=O)(=O)c3ccc(F)cc3)cccc2C1=O | 11% | -3% | 13%
O=C(NCc1ccc(F)cc1)N1CCN(C(=O)c2ccccc2)CC1 | -11% | 2% | -1%
COc1ccccc1-n1cnnc1SC(C)C(=O)NCC1CCCO1 (stereo not drawn) | 9% | -2% | -4%
CN(C)C(=O)c1ccc(NC(=O)COC(=O)Cn2cc(C(F)(F)F)ccc2=O)cc1 | -4% | 3% | -6%
Cc1cc(C)c(NC(=O)CNC(=O)c2ccc3ncsc3c2)c(C)c1 | -1% | 2% | 85%[activator]
Cc1c(C(=O)N2CCN(S(=O)(=O)c3cc(F)ccc3F)CC2)oc2ccccc12 | 1% | -4% | -23%
CN1CCN(C(=S)c2cn(Cc3ccc(F)cc3)c3ccccc23)CC1 | 6% | -4% | 5%
CCCCN(C(=O)c1ccc(C)o1)c1c(N)n(CC(C)C)c(=O)[nH]c1=O | 2% | -2% | -9%
CCCNC(=O)N1[C@H]2CC[C@@H]1C(C(=O)OC)=C(c1ccc(C(C)=O)cc1)C2 | 0% | -4% | -8%

Some of the entries so far, with two lines to a compound:
Below each SMILES: RE007 growth inh, SARS PLpro yeast, 2A StopGo
- Cc1cc(C)c(NC(=O)CNC(=O)c2ccc3ncsc3c2)c(C)c1
→ -1%, 2%, 85%[activator]
- CCCCN(C(=O)c1ccc(C)o1)c1c(N)n(CC(C)C)c(=O)[nH]c1=O
→ 2%, -2%, -9%

The list continues.
SMILES | RE007 growth inh | SARS PLpro yeast | 2A StopGo
O=C(CN1C(=O)NC2(CCCCCC2)C1=O)N1CCCCC1 | 39% | -8% | -4%
O=C1CCC/C=C/C[C@H](CC(=O)N(CCO)Cc2ccccc2)C(=O)N[C@@H](Cc2ccccc2)CO1 | -9% | 1% | 8%
CCOc1ccc(-n2c(=O)[nH]c3sc4c(c3c2=O)CCCC4)cc1 | 13% | 0% | -6%
O=C(COc1ccc(Cl)cc1)OCC(=O)c1ccc[nH]1 | -2% | 11% | 2%
Cc1cc(-n2c(C)cc(C(=O)COc3cc(F)ccc3[N+](=O)[O-])c2C)no1 | 4% | 5% | 13%
Cc1ccccc1C(=O)O[C@H]1[C@H](Cc2ccccc2)NS(=O)(=O)[C@H]2CC3C=C[C@]12O3 | 10% | 3% | -7%
COc1cc2oc(=O)ccc2cc1-c1c(OC)ccc2ccc(=O)oc12 | -3% | 2% | -13%
CCCCNc1c(-c2ccc(OC)c(SC3CCCCC3)c2)nc2ccc(Cl)cn12 | -11% | 4% | ?
CCCn1c(N)c(N(CCOC)C(=O)CSc2ccccc2)c(=O)[nH]c1=O | -4% | 8% | -4%
Nn1c(SCC(=O)NC2CCCc3ccccc32)nnc1C1CC1 (stereo not drawn) | 0% | -2% | -18%
Cc1ccc(C)c(S(=O)(=O)N2CCN(C(=O)c3ccc4ccccc4n3)CC2)c1 | -7% | 3% | ?
COc1ccc(-c2oc(=O)c3cc(OC)c(OC)cc3c2/C=C/c2ccc([N+](=O)[O-])cc2)cc1 | 7% | 5% | 10%
Cc1cccc(-n2nc(CC#N)c(C#N)c2N)c1 | 14% | 5% | 1%
Cc1cccc(C)c1NC(=O)COC(=O)c1c(C)nn(-c2ccccc2)c1C | -5% | 7% | -11%
NC(=O)c1cc[n+](CC(=O)c2ccc(NC(=O)c3ccccc3)cc2)cc1 | -13% | 10% | 0%
COC(=O)C1=C(c2ccc(-c3ccccc3)c(F)c2)C[C@@H]2CC[C@H]1N2C(=O)NCCNC(C)=O | 4% | 1% | -26%
COc1ccc(C(=O)NCc2ccc(Cl)cc2)cc1S(=O)(=O)N1CCCC1 | 6% | -3% | 12%
O=C(Nc1ccc(N2CCOCC2)c(S(=O)(=O)Nc2ccccc2Cl)c1)c1ccccc1 | -14% | 2% | 44%[activator]
O=C(CCCSc1nc2ccccc2[nH]1)NC1CCCCC1 | -13% | 0% | -16%
CCN(CC)CCCNC(=O)CCC(=O)Nc1ccc2nc(N3CCCCC3)cc(C)c2c1 | 8% | 1% | 1%
Cc1cc(C)cc(C(=O)NCC(=O)OCC(=O)NCc2ccco2)c1 | 1% | 0% | -6%
CC1(C)C=Cc2c(ccc3c2OC[C@H](c2ccc(O)cc2O)C3)O1 | ? | 2% | 0%
CC[C@]12c3[nH]c4ccc(Cl)cc4c3CCN1C(=O)[C@@H](CC(=O)NCc1cccc(C(F)(F)F)c1)C[C@@H]2C(=O)N1CCN(C(=O)C2CC2)CC1 | -7% | -11% | ?
COc1ccc(NC(=O)COC(=O)Cn2cnc3ccccc3c2=O)c(OC)c1 | -19% | -2% | -3%
CCN(CC)P(c1n(C)cc[n+]1C)N(CC)CC | -16% | 3% | 5%
CC(=O)Nc1ccc(O)c(-c2nc3ccccc3s2)c1 | -12% | -5% | 35%[activator]
COc1ccc(NC(=O)CC2C(=O)N(c3cccc(OC)c3)C(=O)N2C(C)C)cc1 (stereo not drawn) | 4% | 0% | 29%
CCN1CCN(CCNC(=O)c2ccc(/C=C3\Sc4ccccc4N(Cc4ccccc4F)C3=O)cc2)CC1 | 13% | 0% | -24%
CN(C)c1ccc(N/C(N)=N/c2nc(C(F)(F)F)cc(C(F)(F)F)n2)cc1 | 5% | 0% | 4%
CCOC(=O)[C@H]1[C@H]2COc3ccc(Br)cc3[C@@H]2N2C(=O)c3cc(F)c(F)cc3NC(=O)[C@@]12C | -5% | 5% | ?
O=C(NCc1ccccn1)c1ccc(Cn2c(=S)[nH]c3ccccc3c2=O)cc1 | -2% | 1% | 34%[activator]
O=C(N/N=C/C=C/c1ccccc1)c1cccs1 | -9% | -4% | 29%
Cc1ccc(S(=O)(=O)/N=c2\ccc(Cl)cn2C(F)F)cc1 | 2% | -1% | 2%
CC(OC(=O)c1ccc2c(=O)n3c(nc2c1)CCC3)C(=O)Nc1ccc(C(N)=O)cc1 (stereo not drawn) | -12% | 2%[6.58 µM] | -23%
CCCNC(=O)C(Cc1cccc(Cl)c1)NC(=O)c1ccccc1 (stereo not drawn) | -5% | -8% | 11%
COC(=O)NNC1=CC(=O)CC(C)(C)C1 | 14% | 3% | -5%
COc1cccc(CNC(=O)C2CCCN(C(=O)c3ccc(Cl)cc3)C2)c1 (stereo not drawn) | -10% | -3% | -16%
COc1ccccc1N1CCN(C(=O)c2ccc(CN3CCOCC3)cc2)CC1 | -7% | -3% | 1%
Cc1ccccc1-c1cc(C(=O)NCc2ccco2)n(CC2CC(c3cccnc3)=NO2)n1 (stereo not drawn) | -5% | -5% | 6%
COc1ccc(C(=O)C(C)OC(=O)CCN2C(=O)C3CC=CCC3C2=O)cc1 (stereo not drawn) | 1% | 5% | -11%
CC(C)N(C(=O)Cn1cc(S(=O)(=O)CC(=O)NC2CCCCC2)c2ccccc21)C(C)C | 4% | 1% | -9%
CSCCC(NC(=O)c1ccco1)C(=O)NCCc1ccc(F)cc1 (stereo not drawn) | -4% | 0% | -15%
CC(=O)c1ccc(N(CC(=O)NC2CCS(=O)(=O)C2)S(=O)(=O)c2ccc(Cl)cc2)cc1 (stereo not drawn) | 6% | -7% | -8%
COc1ccc(CNC(=O)C[C@H]2C[C@H](C(=O)N3CCCCC3)[C@@]3(CCc4ccccc4)c4[nH]c5cc(-c6ccco6)ccc5c4CCN3C2=O)cc1OC | 1% | -10% | -22%
CN(C)C(=O)CCc1ccc2c3c([nH]c2c1)[C@]1(CCC2CCCC2)[C@@H](C(=O)N2CCOCC2)C[C@H](CC(=O)NC(C)(C)C)C(=O)N1CC3 | 0% | -9% | 45%[activator]
CCC1(CC)NC(=O)N(CC(=O)N2CCN(c3ccccc3F)CC2)C1=O | -3% | 1% | 1%
Cc1ccc(CN(C)C(=O)c2cccc(S(=O)(=O)N3CCc4ccccc4C3)c2)o1 | -1% | -2% | 0%
Cc1c(Cl)cccc1NC(=O)CSc1ccc(-c2cccnc2)nn1 | 2% | 3% | -5%
COc1cc(Cl)c(C)cc1NC(=O)COC(=O)c1ccc(CN2CCCC2=O)cc1 | 3% | -5% | -16%
O=C(NCCN1CCN(c2ccccc2)CC1)C1CCN(S(=O)(=O)c2cccc3nsnc23)CC1 | 8% | -3% | -29%
C=CCNC(=O)c1onc(CSc2ccc(F)cc2)c1C(=O)NCC=C | 5% | 3% | -12%
Cc1nc(N(C)C)c2sc(=S)n(-c3ccccc3)c2n1 | 12% | 5% | 1%
C=CC(=O)N(CCC)C(c1ccccc1)c1ccccc1OC (stereo not drawn) | 4% | -4% | ?
COC(=O)c1ccc(CNC(=O)c2ccc(OC)c(S(=O)(=O)NC3CCCC3)c2)cc1 | -14% | 4% | 54%[activator]
C=CCn1c(C)cc(C(=O)COC(=O)/C=C/c2cccc(OC)c2)c1C | 1% | 2% | -5%
CC(C)n1ncc2c(C(=O)N3CCN(Cc4ccc(Br)s4)CC3)cc(C3CC3)nc21 | -17% | 3%[6.58 µM] | -30%
CCN(C[C@H]1N[C@@](CC)(C(=O)OC)[C@H]2C(=O)N(C)C(=O)[C@@H]12)C(=O)COC | -3% | -8% | -1%
Cc1noc(C)c1NC(=O)Nc1ccc2c(c1)C(=O)N([C@H](C)CO)C[C@H](C)[C@@H](CN(C)C(=O)Nc1ccc3c(c1)OCO3)O2 | -2% | 0% | -2%
C[C@H](CO)N1C[C@H](C)[C@@H](CN(C)C(=O)Nc2ccccc2)Oc2ccc(NC(=O)CCN3CCOCC3)cc2C1=O | 14% | -5% | -6%
